# From PubChem
# BJeLR viability: lowers viability of BJeLR cells. BJeLR fibroblasts viability, CellTiterGlo ATP luminescence, 48 h; HRASV12, hTERT and SV40 LT/ST transformed. viability loss activity score, % (concentration not given with the values). 30,000 tested, 0.64% active. AID 2275; in the data active = viability loss activity score above about 50%; about a fifth of its hits are not listed in these tables;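 also: higher score means fewer live cells and less ATP luminescence; stock transfer was 50 or 100 nL into about 30 µL; 0% = vehicle wells and 100% = a reference killing control; one replicate is shown; the record names a cut of 85%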
# A1 inhib: inhibitors of A1; 21,000 tested, 0.51% active; caspase activation, % (concentration not given with the values); AID 2241; MEF A1-2A-BIM cells, caspase-Glo luminescence, 3 h; percent of clofoctol signal, DMSO as zero;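 active = most replicate scores above 10, or exactly half above 10 with mean activity above 10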;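 also: effector caspase 3 and 7 activity cleaving a DEVD luciferin substrate; 50 nL library stock added to about 30 µL; numbers are from one replicate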
# * = called active by the depositor; nt = not tested or not shown. Some of the compounds tested; rates above refer to the full screens.
# Start of the listing, in advance (six entries):
SMILES,BJeLR viability,A1 inhib
COc1cccc2cc(-c3cn(-c4ccc(F)c(F)c4)c(=S)[nH]3)c(=O)oc12,-1.4,1.3
Cc1ccc(C(=O)Nc2ccc3ccccc3n2)cc1,13,-5.7
Cc1cccc2nc(Cn3c(=O)n(CCC(=O)NCc4ccco4)c(=O)c4ccccc43)cc(=O)n12,3.8,nt
COc1ccc(S(=O)(=O)N(C)C[C@@H]2Oc3c(NS(=O)(=O)c4cccs4)cccc3C(=O)N([C@H](C)CO)C[C@@H]2C)cc1,-2.1,nt
O=C(NCc1ccccn1)c1cc(Sc2ccc(F)cc2)nc2ccccc12,0.6,nt
Cc1ccc(-n2cc(-c3ccccc3)c3c(NN4CCOCC4)ncnc32)cc1Cl,0.8,0.8

# All compounds of this part, from the start:
SMILES,BJeLR viability,A1 inhib
COc1cccc2cc(-c3cn(-c4ccc(F)c(F)c4)c(=S)[nH]3)c(=O)oc12,-1.4,1.3
Cc1ccc(C(=O)Nc2ccc3ccccc3n2)cc1,13,-5.7
Cc1cccc2nc(Cn3c(=O)n(CCC(=O)NCc4ccco4)c(=O)c4ccccc43)cc(=O)n12,3.8,nt
COc1ccc(S(=O)(=O)N(C)C[C@@H]2Oc3c(NS(=O)(=O)c4cccs4)cccc3C(=O)N([C@H](C)CO)C[C@@H]2C)cc1,-2.1,nt
O=C(NCc1ccccn1)c1cc(Sc2ccc(F)cc2)nc2ccccc12,0.6,nt
Cc1ccc(-n2cc(-c3ccccc3)c3c(NN4CCOCC4)ncnc32)cc1Cl,0.8,0.8
C[C@H](CO)N1C[C@H](C)[C@@H](CN(C)C(=O)Nc2cccc3ccccc23)Oc2c(NC(=O)c3cnccn3)cccc2C1=O,2.7,nt
Nc1nc(C(=O)N2CCOCC2)nn1S(=O)(=O)c1ccc(Cl)cc1,0.3,nt
O=S(=O)(Cc1ccc(Cl)cc1)CC(O)COc1ccc(F)cc1 (centres undefined),0.3,0.1
C[C@@H]1CN([C@@H](C)CO)C(=O)c2cc(NC(=O)C3CC3)ccc2O[C@H]1CN(C)Cc1ccc(C(=O)Nc2ccccc2N)cc1,5.5,nt
Cc1onc(-c2c(Cl)cccc2Cl)c1C(=O)NC(=S)N1CCOCC1,-1.2,-0.1
Cc1ccc2cc3cc(C(=O)NCC4(c5ccccc5)CCCC4)oc3nc2c1,2.3,nt
Cc1ccc(S(=O)(=O)Nc2cccc3c2O[C@@H](CN(C)Cc2ccccc2)[C@H](C)CN([C@H](C)CO)C3=O)cc1,-2.7,nt
COc1ccc(CN(C)C[C@H]2Oc3ccc(NS(=O)(=O)c4ccc(C)cc4)cc3C(=O)N([C@@H](C)CO)C[C@@H]2C)cc1,-1.3,0.8
S=c1nc2c(cnn2-c2ccccc2)c(Nc2ccccc2)[nH]1,1.4,0.0

# Reformatted with two lines to a compound: 3 of the compounds above.
# Screens in order: BJeLR viability | A1 inhib
- Cc1onc(-c2c(Cl)cccc2Cl)c1C(=O)NC(=S)N1CCOCC1
    -1.2 | -0.1
- Cc1ccc2cc3cc(C(=O)NCC4(c5ccccc5)CCCC4)oc3nc2c1
    2.3 | nt
- Cc1ccc(S(=O)(=O)Nc2cccc3c2O[C@@H](CN(C)Cc2ccccc2)[C@H](C)CN([C@H](C)CO)C3=O)cc1
    -2.7 | nt

# Next part
SMILES,BJeLR viability,A1 inhib
COC(CNc1ncnc2c1c(-c1ccccc1)cn2-c1ccc(C)cc1)OC,-1.5,-0.2
C=C[C@](C)(CC/C=C(\C)CC[C@H](O)C(C)(C)O)O[C@@H]1O[C@H](CO)[C@@H](O)[C@H](O)[C@H]1O,-7.1,0.9
Cc1cccc(N2CCN(CCNC(=O)c3ccc4nc(N5CCOCC5)sc4c3)CC2)c1C,6.1,0.4
CCN1C(=O)N/C(=C/c2ccc(Sc3ccc(C)cc3)o2)C1=O,-5.0,nt
Cc1nn(-c2ccccc2)nc1CNC(=O)c1cc(F)cc2c1OCOC2,-2.2,-0.4
O=C(NC1CCCCCC1)c1ccc2c(c1)OCO2,7.6,-7.1
CC(C)(C)c1cc(C(=O)NCc2ccc(C#N)cc2)n(Cc2ccccc2)n1,-12,0.6
FC(F)(F)c1ccccc1-c1ncc(-c2ccccc2)o1,-3.0,-3.8
Cc1nc2c(c(C)nn2C)c(C)c1CCC(=O)N1CCC(C)CC1,10,-1.9
CC(C)(C)NC(=O)Nc1ccc(Cl)cc1,3.8,0.2
CCN(CC)C(=O)Nc1ccc(OC)cc1,-2.0,0.3
COc1ccc(OCC(O)CNC(=O)c2ccccc2C(=O)O)cc1 (centres undefined),-5.5,0.1
C[C@@H]1CN([C@@H](C)CO)C(=O)c2cccc(NS(=O)(=O)c3cn(C)cn3)c2O[C@@H]1CN(C)Cc1ccc(-c2ccccc2)cc1,-0.4,nt
Cc1ccc(S(=O)(=O)Nc2ccc3c(c2)C(=O)N([C@H](C)CO)C[C@H](C)[C@@H](CN(C)Cc2ccc(C(F)(F)F)cc2)O3)cc1,-1.2,0.7
c1cnc2nc(-c3ccc4c(c3)OCCO4)cn2c1,0.6,nt
C[C@H](CO)N1C[C@H](C)[C@@H](CN(C)Cc2ccc3c(c2)OCO3)Oc2c(NC(=O)c3ccncc3)cccc2C1=O,-9.8,nt
O=C(Nc1ccc2[nH]ccc2c1)c1ccc(F)cc1,9.8,-5.7
Fc1ccc(CSc2nnc(SCc3ccccc3)s2)cc1,-3.0,0.0
O=C(NN1CCOCC1)c1cccc(COc2cccc(Br)c2)c1,2.3,nt
C[C@H](CO)N1C[C@H](C)[C@H](CN(C)C(=O)Nc2ccc(C(F)(F)F)cc2)Oc2ccc(NS(=O)(=O)c3ccccc3)cc2C1=O,-4.5,0.0
CCSc1nnc2n(-c3ccccc3)c3ccccc3n12,0.1,nt
C[C@@H]1CN([C@H](C)CO)C(=O)c2cccc(NC(=O)C3CC3)c2O[C@H]1CN(C)Cc1ccc(C(=O)O)cc1,5.3,nt
CCCC(C)NC(=O)Cc1ccc(Cl)cc1 (centres undefined),0.3,0.0
C[C@@H]1CN([C@H](C)CO)C(=O)c2cccc(NC(=O)C3CCCCC3)c2O[C@@H]1CN(C)C(=O)Nc1cccc2ccccc12,7.9,nt
Cc1ccc(S(=O)(=O)CCSc2nc(C3CC3)cc(C(F)(F)F)c2C#N)cc1,2.7,-1.1
CCN(c1cccc2ccccc12)S(=O)(=O)c1ccccc1,5.1,-1.3
Clc1ccc(-c2nn3c(-c4ccco4)nnc3c3ccccc23)cc1,2.3,-3.6
COC(=O)Cn1nnc(-c2nnn(COC(C)=O)c2-c2ccccc2)c1-c1ccccc1,3.7,0.3
COc1ccc(CN(C)C[C@H]2Oc3c(NC(=O)c4cc(C)nn4C)cccc3C(=O)N([C@@H](C)CO)C[C@@H]2C)cc1,2.6,nt
Cc1ccc2c(Sc3ccc(Cl)cc3)c(C(=O)NCCN3CCOCC3)[nH]c2c1,-12,-0.4
C/C(=N\N)c1c(C)cc(C)[nH]c1=O,-2.0,1.1
N#CN=C(N)c1sc2nc3c(cc2c1N)CCCCC3,1.4,-6.4
CC(C)NC(=O)Nc1ccc2c(c1)C(=O)N([C@H](C)CO)C[C@@H](C)[C@H](CN(C)S(=O)(=O)c1cn(C)cn1)O2,-1.3,0.4
CCN1CCN(c2cc(C)c3cc(NC(=O)c4ccncc4)ccc3n2)CC1,4.0,nt
C[C@@H]1CN([C@H](C)CO)C(=O)c2cccc(NC(=O)Nc3ccc4c(c3)OCO4)c2O[C@H]1CN(C)C(=O)Nc1ccc2c(c1)OCO2,3.9,nt
COc1ccc(NC(=O)N(C)C[C@@H]2Oc3c(NC(=O)c4nc5ccccc5s4)cccc3C(=O)N([C@H](C)CO)C[C@H]2C)cc1,4.8,nt
CCN(CC)S(=O)(=O)c1ccc(NC(=O)c2ccccc2Cl)cc1,17,0.3
CN(Cc1ccccc1)C(=O)CN(C)S(=O)(=O)c1ccc2c(c1)C(C)(C)C(=O)N2C,-6.6,0.6
COc1ccc(OC)c2c(=O)cc(C(=O)O)oc12,-0.9,0.2
CNC(=O)C1=NCCCc2cc(OC)c(OC)cc21,-6.6,0.8
Cc1ccc(S(=O)(=O)N(C)C[C@@H]2Oc3ccc(NC(=O)Cn4cnnn4)cc3C(=O)N([C@@H](C)CO)C[C@H]2C)cc1,-4.1,-0.2
C[C@H]1CN([C@@H](C)CO)C(=O)c2cc(NC(=O)Cc3cn(C)c4ccccc34)ccc2O[C@H]1CN(C)C(=O)Nc1ccc(C(F)(F)F)cc1,-3.8,0.9
C[C@H]1CN([C@@H](C)CO)C(=O)c2cc(NC(=O)NC3CCCCC3)ccc2O[C@@H]1CN(C)S(=O)(=O)c1cn(C)cn1,-0.5,0.1
CC(C)NC(=O)N(C)C[C@@H]1Oc2ccc(NS(=O)(=O)c3ccc(F)cc3)cc2C(=O)N([C@@H](C)CO)C[C@H]1C,2.1,0.0
Cc1ccc(S(=O)(=O)Nc2cccc3c2O[C@H](CN(C)C(=O)Nc2c(C)noc2C)[C@@H](C)CN([C@H](C)CO)C3=O)cc1,2.3,nt
C[C@H]1CN([C@@H](C)CO)C(=O)c2cccc(NS(=O)(=O)c3ccc(Cl)cc3)c2O[C@@H]1CN(C)C(=O)Nc1ccc2c(c1)OCO2,-1.9,nt
C[C@H](CO)N1C[C@H](C)[C@H](CN(C)C(=O)Nc2ccc(C(F)(F)F)cc2)Oc2ccc(NC(=O)Cc3ccccc3)cc2C1=O,-0.3,-0.5
COc1ccc(NC(=O)Nc2cccc3c2O[C@@H](CN(C)C(=O)Nc2ccc(F)cc2)[C@H](C)CN([C@@H](C)CO)C3=O)cc1,-11,nt
C[C@H](CO)N1C[C@H](C)[C@H](CN(C)Cc2ccc(Cl)c(Cl)c2)Oc2ccc(NC(=O)Nc3ccccc3)cc2C1=O,-4.2,0.3
Cc1ccc(S(=O)(=O)N(C)C[C@@H]2Oc3c(NC(=O)C4CCCCC4)cccc3C(=O)N([C@H](C)CO)C[C@H]2C)cc1,-0.7,nt
CC(=O)OCC1=C[C@H](O)[C@@H]2C(C(=O)O)=CO[C@@H](O[C@@H]3O[C@H](CO)[C@@H](O)[C@H](O)[C@H]3O)[C@H]12,3.1,-0.3
CC(C)COc1ccc2c3c(c(=O)oc2c1)CCCC3,-1.1,-1.0
O=C(Nc1cc(Cl)ccc1Cl)C(O)(c1ccccc1)c1ccccc1,4.3,nt
COC(=O)[C@H](Cc1ccc(O)cc1)NC(=O)c1cccc(Cl)c1,4.7,1.8
CNC(=S)NCc1sc2ccccc2c1C,-4.2,-0.4
Clc1ccc(-c2nnc(SCC3CC3)o2)cc1,1.1,-4.7
CCCCC(CC)C(=O)Nc1cc(OC)ccc1OC (centres undefined),6.1,-0.3
COc1c2ccoc2nc2c(OC)c(OCC(O)C(C)(C)O)ccc12 (centres undefined),0.6,0.9
C[C@@H]1CN([C@@H](C)CO)C(=O)c2cccc(NS(=O)(=O)c3ccc(Cl)cc3)c2O[C@@H]1CN(C)Cc1ccc(Oc2ccccc2)cc1,-7.9,nt
C=CCn1c(O)c(C2=c3ccccc3=NC2=O)sc1=S,-4.7,-0.1
# Continuation:
SMILES,BJeLR viability,A1 inhib
Cc1ccc(-n2nc(C(F)(F)F)cc2-c2cccs2)cc1,4.6,0.2
O=C(O)/C=C/c1ccc(N2C(=O)CC(Cc3ccccc3)C2=O)cc1 (centres undefined),2.1,1.2
Cc1noc(C)c1S(=O)(=O)Nc1ccc2c(c1)C(=O)N([C@H](C)CO)C[C@H](C)[C@@H](CN(C)Cc1ccc(-c3ccccc3)cc1)O2,-3.8,0.0
C[C@H]1CN([C@@H](C)CO)C(=O)c2cc(NC(=O)Cc3ccccc3)ccc2O[C@H]1CN(C)S(=O)(=O)c1ccc(Cl)cc1,-0.3,0.1
CC(C)=CCC[C@](C)(O[C@@H]1O[C@H](CO[C@@H]2O[C@@H](CO)[C@H](O)[C@H]2O)[C@@H](O)[C@H](O)[C@H]1O)[C@H]1CC[C@]2(C)C1[C@H](O)CC1[C@@]3(C)CC[C@H](O[C@@H]4O[C@H](CO)[C@@H](O)[C@H](O)[C@H]4O[C@@H]4O[C@H](CO)[C@@H](O)[C@H](O)[C@H]4O)C(C)(C)C3CC[C@]12C (some centres undefined),-0.7,0.5
CC(=O)OCC(=O)[C@@]1(O)CCC2C3CCC4=CC(=O)CC[C@]4(C)[C@@]3(F)[C@@H](O)C[C@@]21C (some centres undefined),-4.8,0.8
C[C@@H]1C[C@@H]2O[C@H]2/C=C/C=C\C(=O)Cc2c(Cl)c(O)cc(O)c2C(=O)O1,81*,0.5
C[C@@H]1CN([C@H](C)CO)C(=O)c2cccc(NC(=O)Nc3ccc4c(c3)OCO4)c2O[C@H]1CN(C)Cc1ccc(Oc2ccccc2)cc1,0.7,nt
C[C@H](CO)N1C[C@H](C)[C@@H](CN(C)S(=O)(=O)c2cccs2)Oc2ccc(NC(=O)Nc3ccc(C(F)(F)F)cc3)cc2C1=O,-2.3,0.1
c1ccc(C2=NC3(CCCC3)N=C2c2ccccc2)cc1,2.4,nt
C[C@@H]1CN([C@H](C)CO)C(=O)c2cc(NS(=O)(=O)c3ccccc3)ccc2O[C@H]1CN(C)S(=O)(=O)c1ccc(Cl)cc1,2.1,0.6
Cc1ccc(S(=O)(=O)N(C)C[C@H]2Oc3c(cccc3N(C)C)C(=O)N([C@H](C)CO)C[C@@H]2C)cc1,-10,nt
C[C@H]1CN([C@@H](C)CO)C(=O)c2cccc(NC(=O)C3CCCCC3)c2O[C@@H]1CN(C)Cc1ccc(Oc2ccccc2)cc1,-6.9,nt
C[C@@H]1CN([C@H](C)CO)C(=O)c2cccc(NC(=O)C3CC3)c2O[C@@H]1CN(C)C(=O)Nc1ccc(C(F)(F)F)cc1,1.1,nt
O=C(CN1CC(=O)Oc2ccccc21)Nc1ccc(O)cc1,0.7,0.2
C[C@H](CO)N1C[C@H](C)[C@@H](CN(C)Cc2ccncc2)Oc2c(NC(=O)C3CC3)cccc2C1=O,20,nt
